Compound activity: PubChem, Vanderbilt University
GIRK2 activ: GIRK2 channel activation. P48051. HEK293-GIRK2 thallium flux, Thallos fluorescence. calls only for hits at 25 µM. hit rate 0.05% among 63,000;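 active = among the strongest 0.2% of first-round signals and kept after retests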;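 also: first round at about 10 µM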
Target sequence (P48051 whole entry, looked up): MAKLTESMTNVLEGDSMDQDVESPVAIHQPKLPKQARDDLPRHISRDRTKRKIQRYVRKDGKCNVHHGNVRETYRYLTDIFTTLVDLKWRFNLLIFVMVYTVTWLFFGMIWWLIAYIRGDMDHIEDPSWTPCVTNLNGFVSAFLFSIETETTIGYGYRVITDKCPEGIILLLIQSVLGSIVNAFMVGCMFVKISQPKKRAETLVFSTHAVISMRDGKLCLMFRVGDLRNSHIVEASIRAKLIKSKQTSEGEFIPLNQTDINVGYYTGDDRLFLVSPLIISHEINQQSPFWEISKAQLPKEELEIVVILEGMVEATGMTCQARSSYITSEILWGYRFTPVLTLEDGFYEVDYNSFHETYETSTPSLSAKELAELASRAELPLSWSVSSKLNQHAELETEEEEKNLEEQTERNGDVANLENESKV
Calls only; i = inactive.

SMILES	GIRK2 activ
COc1ccc(Cl)cc1NC(=O)Cc1cc(=O)[nH]c(SCc2ccccc2F)n1	i
O=C(NCCn1ncccc1=O)c1cc(-c2ccco2)[nH]n1	i
Cc1ccc(-n2nnc3c(N4CCN(C(=O)Cc5ccc([N+](=O)[O-])cc5)CC4)ncnc32)cc1	i
O=C(O)c1cccnc1SC1CC(=O)N(c2cccc(Cl)c2Cl)C1=O (centres undefined)	i
O=C(CCc1cccc(Oc2ccc(F)cc2)c1)NCC1CCCO1 (centres undefined)	i
COc1cc(Nc2c(C(=O)N3CCCC(C)C3)cnc3nc(C)ccc23)cc(OC)c1 (centres undefined)	i
COc1ccc(Cl)cc1S(=O)(=O)c1cnc(N2CCSCC2)nc1N	i
COc1cc(NC(=O)/C=C/c2ccc(F)cc2)ncn1	i
CN(C)c1cccc(C(=O)Nc2nc3c(s2)Cc2ccccc2-3)c1	i
Cc1ccc(C2C(C#N)=C(SCC(=O)NCc3ccccc3)NC3=C2C(=O)CCC3)cc1 (centres undefined)	i
Cc1ccc(C(O)CNC(=O)/C=C/c2ccco2)o1 (centres undefined)	i
CCOc1ccc(-c2c(C#N)c(N)nc3c2CN(C)CC3)cc1	i
COc1ccc(S(=O)(=O)NCCO)cc1N(C)S(C)(=O)=O	i
CCOc1ccc(NC(=O)Cn2c3ccc(C)cc3c3ncn(Cc4nc(C)no4)c(=O)c32)cc1	i
Cc1csc(COc2ccc(C(=O)N3CCN(c4ncccn4)CC3)cc2)n1	i
COc1cc(C(=O)Oc2ccc(/C=C/c3ccncc3)cc2)cc(OC)c1OC	i
CCOC(=O)CN1CCn2c1nc1c2c(=O)n(C)c(=O)n1C	i
Cc1cc(=O)oc2cc(OCc3ccc(F)cc3)ccc12	i
NCCNS(=O)(=O)c1cccc2cnccc12	i
Cc1nc(NCCNS(=O)(=O)c2cc(F)ccc2C)cc(N(C)C)n1	i
CCOC(=O)N1CCN(C(=O)c2ccc(NC(=O)c3cn(C)nc3OC)cc2)CC1	i
O=C(CCCS(=O)(=O)c1ccccc1)Nc1nc2c(Cl)ccc(Cl)c2s1	i
CCOc1ccc(/C=C/C(=O)NCC(C)C)cc1OCC	i
COc1ccc(NC(=O)Nc2ccc(Nc3ccc(C)nn3)cc2)cc1OC	i
COc1ccc(CC(=O)Nc2ccc(Cn3cnc(C(=O)Nc4cccc(F)c4)c3)cc2)cc1	i
COc1cccc2sc(N(CCCn3ccnc3)C(=O)c3cccc(F)c3)nc12	i
COc1nc2c(c(=O)n(Cc3ccccc3)c(=O)n2C)n1C	i
CCOc1ccc(-c2nc(Cn3ccn4nc(-c5ccc(C)c(C)c5)cc4c3=O)c(C)o2)cc1	i
CCOc1ccc2cc(S(=O)(=O)N3CCCCCC3)ccc2c1	i
CCCOc1ccc(-c2nc(C#N)c(N3CCN(C(=O)c4ccccc4OC)CC3)o2)cc1	i
O=C(c1ccc2c(c1)OCO2)N1CCN(c2nc3c(C(F)(F)F)cccc3s2)CC1	i
COCCCn1c(C(=O)NCC2CCCO2)cc2c(=O)n3cccc(C)c3nc21 (centres undefined)	i
Cc1nc(Nc2ccc(NC(=O)c3cnccn3)cc2)cc(-n2cccn2)n1	i
O=S(=O)(N1CCCC1)N1CCN(c2ccc(F)cc2)CC1	i
Cn1c(=O)c2c(nc(SCCN3CCOCC3)n2Cc2ccc(F)cc2)n(C)c1=O	i
O=C(NCCC(O)C1CC1)NCc1cccs1 (centres undefined)	i
COCCCn1c(C(=O)N2CCCC2)cc2c(=O)n3cccc(C)c3nc21	i
CCc1nnc(C2CCN(S(=O)(=O)c3cccnc3)CC2)s1	i
COc1ccccc1-c1cnc(N)nc1-c1ccc(OCc2ccc(C)cc2)cc1O	i
COc1ccc(-c2c(C#N)c(N)nc3c2c(C)nn3-c2ccccc2)cc1	i
O=C(c1cnn2c1OCCC2)N1CCn2c1nc1ccccc12	i
COc1ccc(CNC(=O)NCC(C)(O)CSC)cc1OC (centres undefined)	i
CCN(CC)CC#CCNC(=O)C12CC3CC(CC(C3)C1)C2	i
COc1cn2c(cc1=O)C(=O)N(CCNC(=O)c1cc(=O)c3ccccc3o1)CC2	i
O=C(COc1ccccc1F)N1CCN(C2=NN=C(c3ccccc3)CS2)CC1	i
Cc1csc(SCC2CCN(C(=O)CN3C(=O)CCC3=O)CC2)n1	i
O=C(c1cc(-n2cccn2)ccn1)N1CCN(Cc2ccccc2)CC1	i
O=S(=O)(c1cccs1)N1CCCCC1	i
CCc1ccc(S(=O)(=O)c2cnc3ccccc3c2N2CCC3(CC2)OCCO3)cc1	i
COc1ccc(F)cc1S(=O)(=O)NCC(O)c1ccoc1 (centres undefined)	i
CCCCCCCCCCCC(=O)NC(CN1CCOCC1)[C@H](O)c1ccccc1 (some centres undefined)	i
CCc1cccc(NC(=O)Cn2nc3c(N4CCN(c5ccccc5)CC4)nccn3c2=O)c1	i
COc1ccc(CC(C)(O)CNS(=O)(=O)c2cc(F)ccc2F)cc1 (centres undefined)	i
Cc1nn(C)c(C)c1CCC(=O)NCCc1ccc(Cl)cc1	i
COc1cccc(N2CC(C(=O)N3CCCC(c4nnc(C(F)(F)F)o4)C3)CC2=O)c1 (centres undefined)	i
CCCc1nc2oc3cc(OC)ccc3c(=O)c2c(=O)n1Cc1ccc(OC)cc1	i
CC(C)(C)c1csc(CN2CCN(C(=O)C3CC3)CC2)n1	i
COc1cccc(Oc2nccn3c(=O)n(CC(=O)NCc4ccc(SC)cc4)nc23)c1	i
CCOC(=O)CCn1c(=O)c2c(nc3n(C(C)c4ccccc4)c(C)c(C)n23)n(C)c1=O (centres undefined)	i
CC(C)(C)n1nc(Cc2cccc3ccccc23)c2c(N)ncnc21	i

The final five compounds of the part before come first, to join the parts:
SMILES	GIRK2 activ
CCCc1nc2oc3cc(OC)ccc3c(=O)c2c(=O)n1Cc1ccc(OC)cc1	i
CC(C)(C)c1csc(CN2CCN(C(=O)C3CC3)CC2)n1	i
COc1cccc(Oc2nccn3c(=O)n(CC(=O)NCc4ccc(SC)cc4)nc23)c1	i
CCOC(=O)CCn1c(=O)c2c(nc3n(C(C)c4ccccc4)c(C)c(C)n23)n(C)c1=O (centres undefined)	i
CC(C)(C)n1nc(Cc2cccc3ccccc23)c2c(N)ncnc21	i
CC(C)CCNC(=O)Cn1c2ccccc2c2ncn(Cc3nc(-c4ccccc4)no3)c(=O)c21	i
CC(C)=CCC[C@](C)(O)[C@H]1CC[C@]2(C)[C@@H]1[C@H](O)CC1[C@@]3(C)CC[C@H](O)C(C)(C)[C@@H]3[C@@H](O[C@@H]3O[C@H](CO)[C@@H](O)[C@H](O)[C@H]3O[C@@H]3O[C@H](CO)[C@@H](O)[C@H](O)[C@H]3O)C[C@]12C (some centres undefined)	i
O=C(CC1CCCCC1)NC1CCN(C(=O)c2cc(-c3ccccc3)n[nH]2)CC1	i
O=C(Nc1ccc2c(c1)OCO2)N1CCN(Cc2nnnn2-c2ccc(F)cc2)CC1	i
CCOC(=O)N1CCC(NC(=O)c2csc(-n3cccc3)n2)CC1	i
COc1ccc(-c2csc(-n3nc(C)cc3NC(=O)C3CCCCC3)n2)cc1OC	i
CN(C)S(=O)(=O)N1CCN(c2cc(-n3cccc3)ncn2)CC1	i
CCOc1cccc2cc(C(=O)Nc3c(C)nc4sc(C)c(C)n4c3=O)c(=O)oc12	i
CSc1ccc(/C=C2\C=C(C(C)C(=O)NCc3ccc(C(=O)c4ccccc4)cc3)c3cc(F)ccc32)cc1 (centres undefined)	i
C[C@@H](O)CCCCCCCCCCCCCc1cc(O)cc(O)c1C(=O)O	i
O=C1C2N=NN(Cc3nc(-c4ccc5c(c4)OCO5)no3)C2C(=O)N1c1ccc(Br)cc1 (centres undefined)	i
COCCn1c(=O)c2c(nc3n2CCCN3c2ccccc2)n(C)c1=O	i
O=C(NCCOc1ccccc1)N1CCCC(c2nnc(C(F)(F)F)o2)C1 (centres undefined)	i
O=S(=O)(NCCC(O)C1CC1)c1ccc(F)c(F)c1 (centres undefined)	i
Cc1ccc(/C=C/S(=O)(=O)N2CCN(c3ccc(-c4ccncc4)nn3)CC2)cc1	i
C/C=C/C(=O)N1CCC(CSc2ccccn2)CC1	i
CCn1nc(C(=O)Nc2cccc(NS(C)(=O)=O)c2)cc1C	i
COc1ccc(S(=O)(=O)Cc2nc(-c3cccc(C)c3)no2)cc1Cl	i
O=C(NCC(O)c1ccoc1)C(=O)Nc1ccc(F)c(Cl)c1 (centres undefined)	i
Cc1csc(C(=O)N2CCC(COCc3ccc(Cl)cc3)CC2)c1	i
CCc1noc(-c2ccnc(SCC(=O)Nc3ccc(C)cc3Cl)c2)n1	i
COc1cccc2sc(N(C)CC(=O)Nc3nc(-c4cccnc4)cs3)nc12	i
NCC(=O)CCC(=O)O	i
COc1cccc(OCc2nc3c(C)cccc3[nH]2)c1	i
COc1cccc(CNC(=O)CCc2nnc3ccc(-c4ccc(C)cc4)nn23)c1	i
O=C(NC(c1ccccc1)c1ccccc1)c1cc2ccccc2c(=O)s1	i
CCCCCNc1nc2c(c(=O)[nH]c(=O)n2C)n1CC(O)COc1ccc(OC)cc1 (centres undefined)	i
O=C(c1cccnc1)N1CCCC(c2nnc(-c3ccccc3F)s2)C1 (centres undefined)	i
CCOc1ccc(C(=O)Nc2ccc3c(c2)CCCN3C(C)=O)cc1	i
Cc1cc(C)n(CC(=O)Nc2ccccc2)c(=O)c1-c1nc(-c2cccc(Cl)c2)no1	i
CNC(=O)c1cn(-c2ccc(S(=O)(=O)N3CCCC3)cn2)cn1	i
CSc1cccc(NC(=O)C2CC(=O)N(c3ccccc3)C2)c1 (centres undefined)	i
CC(O)Cn1c(NCc2ccccc2)nc2c1c(=O)[nH]c(=O)n2C (centres undefined)	i
O=C(Nc1oc2ccccc2c(=O)c1-c1ccccc1)c1ccc([N+](=O)[O-])cc1	i
Cc1cc(C(=O)N2CCCC(c3nnc(-c4ccc5c(c4)OCO5)o3)C2)c(C)o1 (centres undefined)	i
COc1ccccc1C(O)Cn1cc(C(=O)NC(C)c2cccnc2)nn1 (centres undefined)	i
CCOc1ccc(N2CCn3c2nn(CC(=O)Nc2ccc(F)cc2F)c(=O)c3=O)cc1	i
CN1CCN(NC(=O)CN2CCN(c3ccc(F)cc3)C2=O)CC1	i
CCOC(=O)N1CCN(C(c2cccc(F)c2)c2sc3nc(C)nn3c2O)CC1 (centres undefined)	i
COc1cc(/C=C2\SC(=S)N(c3cccc(C)c3C)C2=O)cc(OC)c1OC	i
Cc1cc(-c2nnc(NC(=O)c3cnccn3)o2)c(C)o1	i
O=C(CSc1nc2ccccc2s1)NCCn1nc(-c2ccco2)ccc1=O	i
O=S(=O)(CCc1ccccc1)NCCN1CCN(c2ccccc2F)CC1	i
Cc1ccc(C)c2sc(N(C)CC(=O)Nc3ccc(S(C)(=O)=O)cc3)nc12	i
CC/C=C\C/C=C\C/C=C\C/C=C\C/C=C\C/C=C\CCC(=O)NCCO	i
COc1ccccc1CN1CCc2nc(SCC(=O)Nc3c(C)cc(C)cc3C)[nH]c(=O)c2C1	i
O=C1CC(c2nc(-c3cccc(Cl)c3)no2)CN1c1ccc2c(c1)OCCO2 (centres undefined)	i
COc1nc2ccccc2nc1N1CCC(C(N)=O)CC1	i
CCOc1cccc2cc(C(=O)Nc3ccc(OC)c(OC)c3)c(=O)oc12	i
CCn1c(-n2nc(C)cc2C)nc2c1c(=O)n(CCOC)c(=O)n2C	i
COc1ccc(-c2nc(C#N)c(N3CCN(C(=O)c4cccc(OC)c4)CC3)o2)cc1	i
Cc1c(-c2nc(-c3ccccc3)no2)sc2ncn(CC(=O)Nc3ccc4c(c3)OCO4)c(=O)c12	i
COC(=O)c1ccc(S(=O)(=O)N2CCC(Oc3ccc(C#N)cn3)CC2)cc1	i
Cc1cc(N2CCN(C(=O)Cc3ccc(F)cc3)CC2)ncn1	i
Cc1noc(C)c1CCC(=O)NCC1CCCCC1	i
Cn1c(C(F)(F)F)nn(CCNS(=O)(=O)c2ccc(Cl)s2)c1=O	i
CCCCCCCn1c(=O)c2c(nc3n2CCCN3Cc2ccco2)n(C)c1=O	i
Cc1ccc(C)c(NC(=O)CSc2cc(N3CCCCC3)ncn2)c1	i
COCCN1CCC(CNC(=O)c2snnc2C)CC1	i
COCCN(Cc1ccncc1)C(=O)c1cc(-c2ccc(F)cc2)nn1C	i

(next part)
SMILES	GIRK2 activ
Cn1cccc1C(CNC(=O)c1ccc(F)cc1Cl)N1CCCC1 (centres undefined)	i
CCCCNC(=O)N1CCCCC1	i
O=C(Cn1cc(S(=O)(=O)N2CCCCCC2)ccc1=O)Nc1ccc2c(c1)OCO2	i
CN(C(=O)c1ccc(=O)n(Cc2cccc(F)c2)n1)C1CCCCC1	i
COc1ccc(OC)c2sc(NC(=O)CCCS(=O)(=O)c3ccccc3)nc12	i
O=C(CCC(=O)N1CC(c2nc(-c3cnccn3)no2)C1)c1ccccc1	i
CCCC(=O)NCCc1cn2cccc(C)c2n1	i
Cc1ccc(C)c2sc(N(C)CC(=O)NC3CCN(Cc4ccccc4)CC3)nc12	i
COc1ncc(NC(=O)C(C)(C)Oc2ccc(Cl)cc2)cn1	i

Ordered by number of heavy atoms (smallest number first): 7 of the compounds above.
SMILES	GIRK2 activ
CCCC(=O)NCCc1cn2cccc(C)c2n1	i
COc1ncc(NC(=O)C(C)(C)Oc2ccc(Cl)cc2)cn1	i
Cn1cccc1C(CNC(=O)c1ccc(F)cc1Cl)N1CCCC1 (centres undefined)	i
CN(C(=O)c1ccc(=O)n(Cc2cccc(F)c2)n1)C1CCCCC1	i
O=C(CCC(=O)N1CC(c2nc(-c3cnccn3)no2)C1)c1ccccc1	i
COc1ccc(OC)c2sc(NC(=O)CCCS(=O)(=O)c3ccccc3)nc12	i
O=C(Cn1cc(S(=O)(=O)N2CCCCCC2)ccc1=O)Nc1ccc2c(c1)OCO2	i

Not all compounds are listed; the hit share may differ from the screen's.
